VDR inh: inhibitors of human vitamin D receptor; 400,000 tested, 0.93% active; P11473; Potency, µM, for the others: max response, negative = inhibition, usual class: inhibitors; AID 504847; VDR-SRC2-3 peptide fluorescence polarization, 2 h; active means well fitted inhibition curve with a large enough effect; inconclusive means small, poorly fitted or top-dose-only effect, or another doubt; inactive means no such curve, though single readings can be large or run the other way; further: series mostly up to about 120 µM
Target sequence (P11473 whole entry, looked up): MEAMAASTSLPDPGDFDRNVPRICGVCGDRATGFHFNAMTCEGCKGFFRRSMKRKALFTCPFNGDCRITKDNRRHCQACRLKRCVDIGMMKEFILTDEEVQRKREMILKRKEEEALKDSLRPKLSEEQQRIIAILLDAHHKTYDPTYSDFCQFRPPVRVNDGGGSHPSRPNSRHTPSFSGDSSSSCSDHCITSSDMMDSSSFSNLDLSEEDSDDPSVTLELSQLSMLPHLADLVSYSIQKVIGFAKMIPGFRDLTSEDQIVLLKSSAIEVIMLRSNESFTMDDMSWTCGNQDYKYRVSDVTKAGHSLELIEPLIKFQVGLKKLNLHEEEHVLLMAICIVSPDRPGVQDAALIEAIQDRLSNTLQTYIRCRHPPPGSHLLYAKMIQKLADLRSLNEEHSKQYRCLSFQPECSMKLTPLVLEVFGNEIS
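After 23 nl compound addition and a short centrifugation, plates sat for 2 hours at ambient temperature; polarization of fluorescence then indicated loss of VDR binding to peptide SRC2-3.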
* = called active by the depositor; [ ] = dose if it differs, or a comment. On the % scale 0 is the no-effect control and ±100 the full control effect; potency means the concentration at half of the fitted maximal effect. An excerpt; the hit share may differ from the screen's.

Sample of the layout, seven compounds:
CCOC(=O)Cc1ccc(NC(=O)Nc2cc3c(cc2N2CCCCC2)n(C)c(=O)n3C)cc1 was read as VDR inh 9.3%.
Screening CCOc1ccc(N2C(=O)c3cccnc3C2Nc2ccc(Cl)cc2)cc1 (stereo not given) returned VDR inh 10.7%.
`CN(Cc1ccccc1)C(=O)COC(=O)C1CCN(S(=O)(=O)c2ccc3c(c2)OCCO3)CC1` gave VDR inh -6.8%.
Screening Cc1nn2c(N3CCN(C)CC3)c3c(nc2c1-c1ccccc1)CCCC3 returned VDR inh -8.7%.
For O=C(Nc1ccc(F)cc1)c1cccc(N2C(=O)c3ccccc3C2=O)c1 the results were VDR inh -4.4%.
For CN(CCC#N)C(=O)COC(=O)C1c2ccccc2Oc2ccccc21 the results were VDR inh 21.9%.
Screening CC(=O)c1cccc(NC(=S)NC(=O)Cc2ccccc2)c1 returned VDR inh -1.2%.

This part in full, repeating the preview:
CCOC(=O)Cc1ccc(NC(=O)Nc2cc3c(cc2N2CCCCC2)n(C)c(=O)n3C)cc1 was read as VDR inh 9.3%.
Screening CCOc1ccc(N2C(=O)c3cccnc3C2Nc2ccc(Cl)cc2)cc1 (stereo not given) returned VDR inh 10.7%.
`CN(Cc1ccccc1)C(=O)COC(=O)C1CCN(S(=O)(=O)c2ccc3c(c2)OCCO3)CC1` gave VDR inh -6.8%.
Screening Cc1nn2c(N3CCN(C)CC3)c3c(nc2c1-c1ccccc1)CCCC3 returned VDR inh -8.7%.
For O=C(Nc1ccc(F)cc1)c1cccc(N2C(=O)c3ccccc3C2=O)c1 the results were VDR inh -4.4%.
For CN(CCC#N)C(=O)COC(=O)C1c2ccccc2Oc2ccccc21 the results were VDR inh 21.9%.
Screening CC(=O)c1cccc(NC(=S)NC(=O)Cc2ccccc2)c1 returned VDR inh -1.2%.
`CC1CCCC(C)N1CCCNC(=O)C(=O)Nc1ccc2nc3n(c(=O)c2c1)CCCCC3` (stereo not given) gave VDR inh -29.2%.
For COc1cc(O)c2c(=O)c3c(O)c(O)ccc3oc2c1OC the results were VDR inh -15.5%.
Screening O=C1N/C(=C/c2ccsc2)C(=O)N1c1ccccc1 returned VDR inh 5.9%.
Nc1ccn(C2CCCO2)c(=O)n1 (stereo not given) was read as VDR inh -0.3%.
For COc1cccc(N2CC(NC(=O)c3cc(Cl)ccc3OC)CC2=O)c1 (stereo not given) the results were VDR inh 9.6%.
`CCCC1C(=O)Nc2ccccc2N1C(=O)c1ccc(C(C)(C)C)cc1` (stereo not given) gave VDR inh -3.5%.
Cc1ccc(NC(=O)Cn2cnc3c(oc4ccccc43)c2=O)cc1 was read as VDR inh -0.6%.
`O=C(CN1C(=O)CSC1=O)Nc1ccc(F)c(F)c1F` gave VDR inh -17.2%.
Screening CCC[C@@H]1C[C@@]1(CCC)[C@@H](NP(=O)(c1ccccc1)c1ccccc1)c1ccc(C(=O)OC)cc1 returned VDR inh -12.5%.
Screening COc1ccc(S(=O)(=O)N2CCCOC2CNC(=O)C(=O)NCCc2ccco2)cc1 (stereo not given) returned VDR inh -7.6%.
For CCOc1ccc(/C=C/c2nc(C#N)c(NC(C)c3ccccc3)o2)cc1 (stereo not given) the results were VDR inh -0.8%.
Screening O=c1[nH]c(Nc2nc3ccccc3o2)nc2c1CCCC2 returned VDR inh -13.6%.
Cc1nc(Oc2ccc(F)cc2Cl)c2oc3ccccc3c2n1 was read as VDR inh -4.0%.

Three entries out of the list, arranged by number of heavy atoms, descending.
`CC1CCCC(C)N1CCCNC(=O)C(=O)Nc1ccc2nc3n(c(=O)c2c1)CCCCC3` (stereo not given) gave VDR inh -29.2%.
Screening COc1ccc(S(=O)(=O)N2CCCOC2CNC(=O)C(=O)NCCc2ccco2)cc1 (stereo not given) returned VDR inh -7.6%.
Screening CCOc1ccc(N2C(=O)c3cccnc3C2Nc2ccc(Cl)cc2)cc1 (stereo not given) returned VDR inh 10.7%.

Returning to the listing, starting 4 compounds before the break.
Screening COc1ccc(S(=O)(=O)N2CCCOC2CNC(=O)C(=O)NCCc2ccco2)cc1 (stereo not given) returned VDR inh -7.6%.
For CCOc1ccc(/C=C/c2nc(C#N)c(NC(C)c3ccccc3)o2)cc1 (stereo not given) the results were VDR inh -0.8%.
Screening O=c1[nH]c(Nc2nc3ccccc3o2)nc2c1CCCC2 returned VDR inh -13.6%.
Cc1nc(Oc2ccc(F)cc2Cl)c2oc3ccccc3c2n1 was read as VDR inh -4.0%.
O=C(COC(=O)CNC(=O)c1ccc(Cl)cc1)Nc1ccc(Cl)cc1C(F)(F)F was read as VDR inh -15.1%.
`N/C(=N\OC(=O)C1CCCCC1)c1ccc(Br)cc1` gave VDR inh 17.1%.
`O=C1CC(c2cccs2)c2cc3c(cc2N1)OCO3` (stereo not given) gave VDR inh -12.4%.
`Cc1cccc(C)c1NC(=O)CCS(=O)(=O)c1cccc2nsnc12` gave VDR inh 4.3%.
For CCn1cc(C(=O)N2CCN(c3ccc([N+](=O)[O-])cc3)CC2)c(=O)c2ccc(C)nc21 the results were VDR inh -1.6%.
For CCS(=O)(=O)Nc1cccc(C(=O)CC2(O)C(=O)Nc3ccccc32)c1 (stereo not given) the results were VDR inh -7.3%.
For CC(C)Oc1ccc(C(CC(=O)O)NC(=O)c2cccs2)cc1 (stereo not given) the results were VDR inh 3.6%.
CCOc1ccc2nc(N3CCCC(C(=O)N4CCN(CC)CC4)C3)sc2c1 (stereo not given) was read as VDR inh -1.6%.
For CCC(C)NC(=O)Cn1nc(C(F)(F)F)c2c1CCCC2 (stereo not given) the results were VDR inh 8.8%.
For CC1(C)CC(=O)C2=C(C1)NC(Nc1nc3ccccc3o1)=NC2c1cccc(O)c1 (stereo not given) the results were VDR inh -6.3%.
`Cc1ccccc1NC(=S)N(Cc1cccs1)C1CCCCC1` gave VDR inh -2.7%.
`CCN(c1cccc(C)c1)S(=O)(=O)c1ccc2c(c1)oc(=O)n2C` gave VDR inh -7.9%.
For O=c1c(C(c2ccc(Cl)cc2)c2c(O)nc3n(c2=O)CCS3)c(O)nc2n1CCS2 the results were VDR inh inconclusive.
Screening CC(C)C[C@H](NC(=O)N1CCCCCC1)C(=O)O returned VDR inh -8.4%.
`CCN(CC)S(=O)(=O)c1ccc(N(C)C)c(NC(=O)C2CCCC2)c1` gave VDR inh -11.5%.
CCOC(=O)C1=C(COC(=O)c2cccc(NC(C)=O)c2)NC(=O)NC1C (stereo not given) was read as VDR inh 3.1%.
CC1=Nc2cc(C(=O)NCCCN3CCN(C)CC3)ccc2Sc2ccc(C)cc21 was read as VDR inh -5.4%.
Screening CN(C(=S)NC(=O)CCCOc1ccc(Cl)cc1Cl)c1ccccc1 returned VDR inh -16.0%.
`COc1ccc(S(=O)(=O)N2CCN(C(=O)NC3CCCCC3)CC2)cc1OC` gave VDR inh -15.7%.
Cc1nnsc1-c1nnc(SCC(=O)c2ccc(F)cc2)n1C1CC1 was read as VDR inh -2.2%.
COc1cc(-c2nc3c4ccccc4nc(=S)n3[nH]2)cc(OC)c1OC was read as VDR inh 14.0%.
CC(C)NC(=S)N/N=C1\CCCCC1C1CCCCC1 (stereo not given) was read as VDR inh inconclusive.
CC(C)(C)NC(=O)CN(C(=O)C(=O)Nc1ccc2c(c1)OCCO2)C1CCCC1 was read as VDR inh -14.5%.
COc1ccc(C(=O)OCC(=O)NCCCc2ccccc2)c(OC)c1 was read as VDR inh 0.1%.
`O=C(O)C1(P(=O)(c2ccc(Cl)cc2)c2ccc(Cl)cc2)CC1` gave VDR inh -4.8%.
Cc1ccc(OCCCC(=O)ON=C(N)c2ccccc2C)cc1 was read as VDR inh -25.3%.
`Cc1ccn2c(C(=O)NN=C3CCCCCCC3)c(C)nc2c1` gave VDR inh -9.3%.
For COCCOC(=O)C1=C(C)OC(N)=C(C#N)C1c1ccc2c(c1)OCO2 (stereo not given) the results were VDR inh 2.0%.
Screening Cc1ccc(NC(=O)CCN2C(=O)NC3(CCCC3)C2=O)cc1 returned VDR inh -6.8%.
For COc1ccccc1CC(=O)Nc1cccc(C(=O)Nc2nccs2)c1 the results were VDR inh -14.2%.
Cc1ccc(C(=O)N2CCN(c3ccc(NC(=O)Cc4ccccc4)cc3)CC2)cc1 was read as VDR inh 10.1%.
For NNC(=O)c1ccc(Oc2cc(Cl)cc(Cl)c2)o1 the results were VDR inh -2.2%.
For COc1cc(S(=O)(=O)N2CCC(C(N)=O)CC2)c(C)cc1C the results were VDR inh -1.3%.
Screening CSc1ncc(C(=O)Nc2cccc(C)c2C)c(C)n1 returned VDR inh -16.9%.
`CC1=CC(C)(C)Nc2ccc(Cc3ccc4c(c3)C(C)=CC(C)(C)N4)cc21` gave VDR inh -20.0%.
`CCOc1ccc(C2c3[nH]c4ccccc4c3CCN2C(=O)CCC2CCCC2)cc1` (stereo not given) gave VDR inh 5.1%.
Screening CCn1c(=O)c2sccc2n2c(CCC(=O)N3CCN(c4ccc(C(C)=O)cc4)CC3)nnc12 returned VDR inh -10.1%.
`CCOC(=O)Cc1csc(NC(=S)NC(=O)c2ccccc2Br)n1` gave VDR inh 1.9%.
`C=C(C)Cn1c(SCC(=O)N/N=C/c2ccccc2OCC(=O)O)nnc1-c1ccc(Br)cc1` gave VDR inh -4.3%.
`CN(Cc1ccco1)C(=O)Cn1ncc2c([nH]c3ccccc32)c1=O` gave VDR inh 3.6%.
CCc1cccc2c(/C=N/NC(=O)c3cccc(S(=O)(=O)Nc4ccccc4Cl)c3)c[nH]c12 was read as VDR inh -8.8%.
For C[C@@H]1CCC[C@H](C)N1 the results were VDR inh 0.4%.
`O=C(CCNS(=O)(=O)c1ccc(Cl)cc1)OCC(=O)N1CCN(C(=O)c2ccco2)CC1` gave VDR inh -18.3%.
O=C(CSc1oc(-c2ccco2)nc1S(=O)(=O)c1ccc(Cl)cc1)Nc1ccc(F)cc1 was read as VDR inh -7.0%.
Screening CCC(C(=O)NCc1ccccc1)n1nc(C)c2sc3ccccc3c2c1=O (stereo not given) returned VDR inh 7.7%.
Cc1cnc(C(=O)OCC(=O)c2c(N)n(CC(C)C)c(=O)n(C)c2=O)cn1 was read as VDR inh -9.2%.
Cc1ccn2c(NC(C)(C)C)c(-c3cccs3)nc2c1 was read as VDR inh -1.9%.
For COc1ccccc1C(=O)N1c2ccccc2C(C)(c2ccc(Cl)cc2)CC1(C)C (stereo not given) the results were VDR inh -10.6%.
For CCCN1C(=O)C2C(C(=O)Nc3cccc(OC)c3)C3C=CC2(O3)C1C(=O)NC1CCCCC1 (stereo not given) the results were VDR inh 19.1%.
COc1ccc(-c2nc3sc(CCNC(=O)C(=O)Nc4cc(C)cc(C)c4)c(C)n3n2)cc1 was read as VDR inh 15.6%.
`O=S(=O)(c1ccc2c(c1)N(Cc1ccc(Cl)cc1)C1CCCN21)N1CCOCC1` (stereo not given) gave VDR inh 5.8%.
For CCN(CC)S(=O)(=O)c1ccc(N2CCCC2)c(C(=O)OCC(=O)N2CCCC2)c1 the results were VDR inh 0.9%.
`O=C(Nc1ccc(Cl)cc1C(=O)O)c1ccc2c(c1)C(=O)N(Cc1ccco1)C2=O` gave VDR inh inconclusive.
Screening COC(=O)c1ccc(N2C(=O)Cc3cc(OC)c(OC)cc3C2c2ccc(F)cc2)cc1 (stereo not given) returned VDR inh 2.5%.
Screening O=S(=O)(NCCSc1ccc(Cl)cc1)c1ccc2c(c1)OCCO2 returned VDR inh 5.9%.
CCn1c(=O)sc2cc(NC(=O)c3cccc(OC)c3)ccc21 was read as VDR inh 4.5%.
`COC(=O)c1csc(S(=O)(=O)N2CCOCC2)c1OC` gave VDR inh 31.4%[activator].
`CCc1ccccc1NC(=O)C1CCCN(C(=O)c2cnn(-c3ccccc3)c2-n2cccc2)C1` (stereo not given) gave VDR inh 7.2%.
`CC1(C)O[C@H]2C[C@@H]3[C@H]4CCC5=CC(=O)CC[C@@]5(C)[C@]4(F)[C@@H](O)C[C@@]3(C)[C@@]2(C(=O)CCl)O1` gave VDR inh -16.0%.
`COc1nc(NC(C)(C)C)nc(Oc2ccc(=O)n(C)n2)n1` gave VDR inh -3.0%.
Screening COc1ccc(C(=O)Nc2cc(C)nn2-c2cccc(F)c2)cc1 returned VDR inh 12.3%.
For O=C(NC1CCCCC1)[C@H](CSCc1ccccc1)N1Cc2ccccc2C1=O the results were VDR inh -15.5%.
CC(C)(C)c1nnc(NC(=O)CS(=O)(=O)Cc2ccccc2)s1 was read as VDR inh -3.4%.
Cc1onc(-c2ccccc2)c1C(=O)Nc1nc(-c2cc(F)ccc2F)cs1 was read as VDR inh -19.4%.
Screening O=C(Nc1ncc2c(n1)CC(c1ccc(Cl)cc1)CC2=O)c1ccco1 (stereo not given) returned VDR inh -13.1%.
Screening CC1CCCN(c2nc3ccccc3nc2C(C#N)S(=O)(=O)c2ccccc2)C1 (stereo not given) returned VDR inh 6.6%.
Screening CC(C)OC(=O)CN1CCN(C2c3ccccc3-c3ccccc32)CC1 returned VDR inh -3.9%.
For CCOc1ccccc1NC(=O)C(C)Sc1nc2c(c(=O)[nH]1)CCCC2 (stereo not given) the results were VDR inh 4.3%.
For C/C(=N\NC(=O)c1cccs1)C(C)(C)C the results were VDR inh -0.6%.
For O=C1C(c2ccc(F)cc2)N(Cc2ccc3c(c2)OCO3)C(=O)CN1C1CCCCCC1 (stereo not given) the results were VDR inh -8.4%.
CC(=O)Nc1ccc(S(=O)(=O)NCC(=O)NC(C)c2ccc(S(N)(=O)=O)cc2)cc1 (stereo not given) was read as VDR inh -1.0%.
O=S(=O)(c1cccc2cccnc12)N1CCN(c2ccccc2)CC1 was read as VDR inh -0.5%.
For O=C(NCC1CCCO1)Nc1ccc2c(c1)OCO2 (stereo not given) the results were VDR inh 10.0%.
CCOC(=O)c1c(NC(=O)Cc2coc3ccc(CC)cc23)sc2c1CCC2 was read as VDR inh 2.5%.
Screening CCOc1ccccc1C(=O)OCC(=O)NCCNC(=O)COC(=O)c1ccccc1OCC returned VDR inh 8.9%.
O=C1CCCN1C(=O)CSc1nnnn1-c1ccccc1 was read as VDR inh 9.5%.
`COc1ccc(CCNC(=O)Cc2ccc(C)cc2)cc1OC` gave VDR inh -3.4%.
NC(N)=NC(=S)Nc1ccc(Cl)cc1 was read as VDR inh -18.0%.
For O=[N+]([O-])c1ccccc1OCCOc1ccccc1[N+](=O)[O-] the results were VDR inh -2.7%.
